Source: PubChem BioAssay (ICCB-Longwood Screening Facility, Harvard Medical School)
Polio RdRp inh: poliovirus RdRp elongation inhibitors, primary screen, biochemical, fluorescence polarization, total intensity. poliovirus polymerase elongation; stronger effect = lower value. Genome polyprotein (Poliovirus type 1 (strain Mahoney)), P03300. 0.66% of 150,000 active. % elongation, % (compound at 16.7 µg/mL); in the data active = % elongation below about 90%; also: some results filed as inactive read as strong as hits
Target sequence (P03300 1749-2209 limits assumed): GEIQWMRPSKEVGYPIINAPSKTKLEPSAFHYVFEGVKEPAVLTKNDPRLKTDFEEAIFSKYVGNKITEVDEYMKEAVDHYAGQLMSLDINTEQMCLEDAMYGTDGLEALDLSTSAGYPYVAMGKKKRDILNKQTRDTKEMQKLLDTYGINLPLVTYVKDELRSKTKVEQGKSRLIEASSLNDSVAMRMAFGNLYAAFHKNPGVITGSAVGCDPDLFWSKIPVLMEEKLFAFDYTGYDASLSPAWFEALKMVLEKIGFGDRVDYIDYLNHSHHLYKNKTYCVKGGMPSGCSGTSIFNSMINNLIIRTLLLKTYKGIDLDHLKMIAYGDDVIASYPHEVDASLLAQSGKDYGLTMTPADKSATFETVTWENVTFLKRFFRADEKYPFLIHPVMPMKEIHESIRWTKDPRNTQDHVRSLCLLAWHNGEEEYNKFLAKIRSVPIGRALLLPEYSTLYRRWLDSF
Polio RdRp inh intensity: second read-out of Polio RdRp inh, no call of its own (marks repeat the call); % elongation; measured here: total intensity read-out; formula for this scale not given here;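 total fluorescence in place of polarization; lower means less elongation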
Active calls of the source: *. These rows are one share of the data; rates above refer to the full screens.

SMILES | Polio RdRp inh | Polio RdRp inh intensity
O=C(COc1ccc(F)cc1)NC1CC(=O)N(c2ccc3c(c2)OCCO3)C1 (centres undefined) | 110.0 | 111.0
CCCCCn1cc2c(c1-c1ccc(Cl)cc1)c(=O)n(C)c(=O)n2C | 106.0 | 109.0
CC1CCN(c2nc3ccc(C(=O)NC(C)C)cc3s2)CC1 | 102.0 | 104.0
COc1ccc(C)cc1NC(=O)C(=O)NCCc1csc2nc(-c3ccccc3F)nn12 | 108.0 | 112.0
Cc1ccc(-n2ncc3c(NCCCc4ccccc4)ncnc32)cc1 | 105.0 | 106.0
COC(=O)c1ccc2c(c1)N(CC(=O)Nc1cccc(Cl)c1C)C(=O)c1ccccc1S2 | 107.0 | 113.0
Cc1ccc(NC(=O)CCCN2C(=O)COc3ccc(C)cc32)c(Cl)c1 | 108.0 | 113.0
Cc1cccc(N2CCN(c3c4c(nc5nncn35)CCC4)CC2)c1C | 110.0 | 111.0
Cc1cccc(N2C(=O)C(CC(=O)Nc3ccccc3)N(C3CCCCC3)C2=O)c1 (centres undefined) | 103.0 | 107.0
COc1ccccc1/C=C/c1nc(C#N)c(NC(C)c2ccccc2)o1 (centres undefined) | 103.0 | 107.0
CCOC(=O)C(CC)n1nnc2sc(-c3ccccc3)cc2c1=O (centres undefined) | 121.0 | 119.0
Cc1cc(F)ccc1NC(=O)Cn1nc(N2CCN(c3ccccc3)CC2)ccc1=O | 104.0 | 109.0
CCOC(=O)c1ccc(NC(=O)CSc2ccc(-c3ccccn3)nn2)cc1 | 104.0 | 109.0
CC(Oc1ccc(F)cc1)C(=O)NCC1(N(C)C)CCCCC1 (centres undefined) | 104.0 | 103.0
COc1cc(OC)c(NC(=O)C(C)n2c(=O)cc(-c3ccccc3)c3c(C)nn(C)c32)cc1Cl (centres undefined) | 104.0 | 109.0
Cn1nnc2c(NCc3ccc(Cl)cc3)ncnc21 | 111.0 | 112.0
Cc1nc2ccn(Cc3ccccc3)c(=O)c2cc1C(=O)N1CCN(c2ccc(F)cc2)CC1 | 109.0 | 107.0
O=C(Nc1cc(Cl)cc(Cl)c1)c1ccc(F)c(S(=O)(=O)N2CCc3ccccc32)c1 | 100.0 | 103.0
COc1ccccc1NC(=O)c1oc2ccccc2c1NC(=O)c1ccccc1C(F)(F)F | 105.0 | 106.0
CC(=O)N1CCCc2cc(S(=O)(=O)N3CCN(c4ccccc4F)CC3)ccc21 | 113.0 | 113.0
Cc1nnc(N2CCN(c3ccccc3F)CC2)c2c1nnn2Cc1ccccc1Cl | 108.0 | 111.0
CCc1ccc(NC(=O)CN2C(=O)C(c3ccc(C)cc3)=NC23CCCCC3)cc1 | 107.0 | 112.0
Cc1ccc2occ(CC(=O)N(Cc3ccc(N(C)C)cc3)C3CCS(=O)(=O)C3)c2c1 (centres undefined) | 120.0 | 118.0
CS(=O)(=O)c1ccccc1-c1nnc(NC(=O)c2ccc3c(c2)OCCO3)o1 | 110.0 | 116.0
CCCOc1ccccc1C1C(C(=O)Nc2ccccc2)=C(C)Nc2nnnn21 (centres undefined) | 104.0 | 104.0
COc1ccc(NC(=O)Cn2cc(S(=O)(=O)N3CCC(C)CC3)c3ccccc3c2=O)cc1Cl | 110.0 | 111.0
CC1CCc2nc(NC(=O)Cc3ccc(Cl)cc3)sc2C1 (centres undefined) | 100.0 | 100.0
COc1cc(NC(=O)CSc2nc3nc(C)c(Cc4ccccc4)c(C)n3n2)cc(OC)c1OC | 112.0 | 112.0
COCCNC(=O)CSc1nc2cc3c(cc2c(=O)n1CCCCCC(=O)NCc1ccc(OC)cc1)OCO3 | 110.0 | 110.0
Cc1ccc(NC(=O)Cn2c(=O)n(Cc3ccco3)c(=O)c3sc4ccccc4c32)c(C)c1 | 105.0 | 109.0
COc1ccccc1N1CCN(C(=O)c2nn(-c3ccc(C)cc3)c(=O)n(C)c2=O)CC1 | 106.0 | 112.0
Cc1nn(C)c2c1c(-c1ccccc1)cc(=O)n2Cc1ccccc1C#N | 113.0 | 94.0
CCn1cc(C(=O)NCCc2ccccc2)c(=O)c2cc(S(=O)(=O)N3CCOCC3)ccc21 | 102.0 | 103.0
Cc1cccc(OCCn2c(-c3ccc(Cl)cc3)nc3ccccc3c2=O)c1 | 104.0 | 98.0
COc1ccccc1C(=O)NCC(c1cccnc1)N1CCc2ccccc2C1 (centres undefined) | 112.0 | 117.0
COc1cc2c(cc1NC(=O)COc1cc(C)ccc1C)oc1ccccc12 | 105.0 | 104.0
Cc1ccc(NC(=O)N2CC=C(c3c[nH]c4ccccc34)CC2)cc1Cl | 44.0 | 246.0
COc1ccccc1-c1nc2cc(NC(=O)c3ccccc3Cl)ccc2o1 | 102.0 | 112.0
CCOc1ccc(CNC(=O)c2ccc(-c3nc(CSc4ccc(C)cc4)c(C)o3)cc2)cc1 | 109.0 | 114.0
COc1ccc(C)cc1NC(=O)CN(c1cc(C(F)(F)F)ccc1Cl)S(C)(=O)=O | 103.0 | 104.0
Cc1cccc(N2CCN(C(=O)C3CCCN(C(=O)c4cc5sccc5n4C)C3)CC2)c1C (centres undefined) | 108.0 | 107.0
Cc1ccccc1NC(=O)c1c(NC(=O)c2cccs2)sc2c1CCC(C)C2 (centres undefined) | 104.0 | 109.0
Cc1ccc2oc(-c3ccc(Cl)cc3)c(O)c(=O)c2c1 | 109.0 | 115.0
CCC1CCCCN1S(=O)(=O)c1ccc2c(c1)CCCN2C(C)=O (centres undefined) | 104.0 | 107.0
N=c1n(CCO)c2ccccc2n1Cc1ccccc1F | 109.0 | 111.0
CCOc1ccc(-n2cc(-c3ccccc3)c3c(Nc4cccc(F)c4)ncnc32)cc1 | 109.0 | 104.0
O=[N+]([O-])c1ccc(C(c2sc3nc(-c4ccco4)nn3c2O)N2CCN(Cc3ccccc3)CC2)cc1 (centres undefined) | 110.0 | 110.0
COC(=O)c1ccc(Nc2ncnc3c2cnn3-c2ccccc2)cc1 | 110.0 | 108.0
CCCn1c(=O)c2sccc2n2c(CCCC(=O)Nc3cccc(CC)c3)nnc12 | 117.0 | 125.0
Cc1ccc(Cl)cc1N1CCN(c2nc3ccccc3c3nc(-c4cccnc4)nn23)CC1 | 108.0 | 103.0
The list goes on:
SMILES | Polio RdRp inh | Polio RdRp inh intensity
CC1=C(C(=O)Nc2ccc(C)cc2C)C(c2ccc(Cl)cc2)n2nc(C(=O)OC(C)C)nc2N1 (centres undefined) | 103.0 | 105.0
CCN1C(=O)c2ccccc2Sc2ccc(NC(=O)COc3ccc(Cl)cc3)cc21 | 110.0 | 118.0
CCCC(=O)Oc1c(Sc2ccc(C)cc2)c(C)nn1-c1ccccc1 | 105.0 | 105.0
CCOC(=O)CNC(=O)Nc1cc(C(=O)NCc2ccccc2OC)ccc1N1CCCC1 | 109.0 | 111.0
COc1ccc(NC(=O)Nc2cc(-c3cn4cccnc4n3)ccc2C)cc1 | 108.0 | 113.0
Cc1c(NS(=O)(=O)c2ccccc2)cc(C(C)C)c(O)c1S(=O)(=O)c1ccc(Cl)cc1 | 105.0 | 105.0
CCC(C)(C)NC(=O)C(NS(=O)(=O)c1cccs1)c1ccccc1 (centres undefined) | 109.0 | 117.0
COC(=O)c1cc2c(cc1NC(=O)c1c(C)nn(-c3ccc(C)cc3)c1-n1cccc1)OCO2 | 104.0 | 107.0
COCCNC(=O)CCn1nc(-c2ccc(Cl)cc2)c2ccccc2c1=O | 108.0 | 109.0
COc1ccc(-n2ncc(C(=O)NCc3ccc4c(c3)OCO4)c2C2CCN(C(=O)OC(C)(C)C)CC2)cc1 | 100.0 | 97.0

6 successive records already listed, quoted:
SMILES | Polio RdRp inh | Polio RdRp inh intensity
COc1ccc(NC(=O)Cn2cc(S(=O)(=O)N3CCC(C)CC3)c3ccccc3c2=O)cc1Cl | 110.0 | 111.0
CC1CCc2nc(NC(=O)Cc3ccc(Cl)cc3)sc2C1 (centres undefined) | 100.0 | 100.0
COc1cc(NC(=O)CSc2nc3nc(C)c(Cc4ccccc4)c(C)n3n2)cc(OC)c1OC | 112.0 | 112.0
COCCNC(=O)CSc1nc2cc3c(cc2c(=O)n1CCCCCC(=O)NCc1ccc(OC)cc1)OCO3 | 110.0 | 110.0
Cc1ccc(NC(=O)Cn2c(=O)n(Cc3ccco3)c(=O)c3sc4ccccc4c32)c(C)c1 | 105.0 | 109.0
COc1ccccc1N1CCN(C(=O)c2nn(-c3ccc(C)cc3)c(=O)n(C)c2=O)CC1 | 106.0 | 112.0

Continued:
SMILES | Polio RdRp inh | Polio RdRp inh intensity
O=C(CN1C(=O)COc2ccc(S(=O)(=O)N3CCOCC3)cc21)N1CCN(c2ccccc2F)CC1 | 103.0 | 102.0
CCn1c(SCc2ccccc2F)nc(=O)c2c(C(=O)OC)cc(C3CC3)nc21 | 102.0 | 103.0
Cc1ccc(C)c(NC(=O)Cn2c(=O)oc3cc(S(=O)(=O)NCc4ccccc4)ccc32)c1 | 104.0 | 109.0
CCN(CC)CCn1c(-c2ccccc2)csc1=Nc1ccccc1 | 103.0 | 107.0
O=C(NCCN1CCCCC1)c1ccc(Cn2c(SCc3ccccc3)nc3cccnc32)cc1 | 115.0 | 110.0
CC(C)CC(C(=O)NCCc1ccccc1)N1Cc2ccccc2C1=O (centres undefined) | 101.0 | 105.0
Cc1cc(C)cc(NC(=O)Nc2nnc(N(C)C3CCCCC3)s2)c1 | 107.0 | 98.0
Cc1cc(C)cc(NC(=O)N2CCN(C)c3ncccc32)c1 | 105.0 | 112.0
CCOC(=O)c1c(NC(=O)c2ccc(S(=O)(=O)N3CCC(C)CC3)cc2)sc2c1CCN(C)C2 | 90.0* | 70.0*
Cc1cccc(N(C)C(=O)Cn2cnc3nc4c(cc3c2=O)CCCC4)c1 | 102.0 | 107.0
COc1ccc(-c2nn(CC(=O)NCc3ccccc3)c3c2cnc2ccc(F)cc23)cc1 | 113.0 | 109.0
COc1ccc(Nc2cc(C(=O)NCCCN(C)C3CCCCC3)c3ccccc3n2)cc1 | 111.0 | 112.0
CCOC(=O)c1c(NC(=O)c2cc(-c3ccc(OC)cc3)on2)sc(C)c1C | 84.0* | 83.0*
O=C(NCC(c1cccnc1)N1CCN(Cc2ccccc2)CC1)C(=O)Nc1cccc(F)c1 (centres undefined) | 103.0 | 95.0
COc1ccc(OC)c(NC(=O)c2cc3c(=O)n4cccc(C)c4nc3n2C)c1 | 109.0 | 114.0
COc1ccc(CNS(=O)(=O)c2cnc(N)nc2)cc1 | 114.0 | 118.0
CCOc1ccc(C2C(=O)N(C3CCCCCC3)CC(=O)N2Cc2ccccc2)cc1OC (centres undefined) | 108.0 | 104.0
CCOc1ccccc1NC(=O)N1CCc2c(sc3c2CCCC3)C1c1ccccc1 (centres undefined) | 105.0 | 105.0
CCN(c1ccccc1)c1nnc(NC(=O)Nc2ccc(Br)cc2)s1 | 111.0 | 116.0
CC(=O)c1ccc(NC(=O)CSc2nc(-c3ccc(C)cc3)nc3c2c(=O)n(C)c(=O)n3C)cc1 | 112.0 | 115.0

An excerpt of these results, as labelled records:
molecule: Cc1cccc(N(C)C(=O)Cn2cnc3nc4c(cc3c2=O)CCCC4)c1
  Polio RdRp inh: 102.0
  Polio RdRp inh intensity: 107.0
molecule: COc1ccc(-c2nn(CC(=O)NCc3ccccc3)c3c2cnc2ccc(F)cc23)cc1
  Polio RdRp inh: 113.0
  Polio RdRp inh intensity: 109.0

Going on with the list.
SMILES | Polio RdRp inh | Polio RdRp inh intensity
CCc1ccc2oc(-c3cc(NC(=O)c4cc(OC)c(OC)c(OC)c4)ccc3O)nc2c1 | 105.0 | 118.0
Cc1ccc(NC(=O)N2CCc3cc(S(=O)(=O)N4CCC(C)CC4)ccc32)cc1F | 110.0 | 108.0
COc1ccccc1NC(=O)CSc1nc(-c2ccc(C(C)(C)C)cc2)c(C#N)c(=O)[nH]1 | 104.0 | 104.0
O=C(Cn1cc(SCc2cccc(F)c2)c2ccccc21)N1CCCC1 | 114.0 | 117.0
O=C(CCCCn1c(=O)c2ccccc2n(CC(=O)Nc2cccc(C(F)(F)F)c2)c1=O)NCc1ccc2c(c1)OCO2 | 111.0 | 112.0
CC1N=C2c3ccccc3N=C(SCC(=O)NCCc3ccccc3)N2C1=O (centres undefined) | 105.0 | 109.0
CC(C)c1ccc(NC(=O)CN2C(=O)CCc3cc(S(=O)(=O)N4CCOCC4)ccc32)cc1 | 107.0 | 109.0
O=C(Nc1ccc2nc(SCC(=O)N3CCCc4ccccc43)sc2c1)c1ccccc1 | 105.0 | 105.0
COc1cc(NC(=O)CCc2c(C)nc3c(c(C)nn3-c3ccccc3)c2C)cc(OC)c1OC | 109.0 | 111.0
CCc1ccc(NC(=O)CSc2nc(C)cc(COC)c2C#N)cc1 | 106.0 | 110.0
Cc1ccc(C)c(Nc2nnc(-c3ccc(C)c(S(=O)(=O)N4CCCCC4)c3)c3ccccc23)c1 | 100.0 | 105.0
Cc1cccc(C(c2sc3nc(-c4ccco4)nn3c2O)N2CCN(c3ccccc3F)CC2)c1 (centres undefined) | 103.0 | 107.0
Cc1ccc(-n2ncc(C(=O)NCc3cccs3)c2C2CCN(C(=O)OC(C)(C)C)CC2)cc1 | 106.0 | 108.0
Cc1onc(-c2ccc(Br)cc2)c1C(=O)Nc1ccc(Br)cc1F | 103.0 | 96.0
CCCCOc1ccc(CNC(=O)C2CCN(c3nnc(-n4cccc4CNc4ccc(C)cc4)s3)CC2)cc1 | 106.0 | 108.0
CSc1ccc(CCNC(=O)C(C)n2c(C)c3cnn(-c4ccccc4)c(=O)c3c2C)cc1 (centres undefined) | 108.0 | 109.0
CCOC(=O)c1c(C)c(C(=O)NCCc2ccc(OC)cc2)c(C)n1CC | 107.0 | 112.0
COc1ccc(S(=O)(=O)c2cn(Cc3ccccc3)c3ccc(OC)cc3c2=O)cc1 | 102.0 | 98.0
CC(NC(=O)C(=O)Nc1c2c(nn1-c1ccccc1)CSC2)c1ccccc1 (centres undefined) | 104.0 | 103.0
CCc1ccc(NC(=O)C(CC)n2c(=O)c(C(F)(F)F)nc3ccccc32)cc1 (centres undefined) | 108.0 | 113.0
Cc1cc(C)c2c(CC(=O)Nc3ccc(S(=O)(=O)Nc4nc(C)cc(C)n4)cc3)coc2c1 | 124.0 | 125.0
Cc1ccn2c(=O)c(C(=O)NCCCN3CCCCC3C)c(O)nc2c1 (centres undefined) | 104.0 | 106.0
